# From PubChem BioAssay
# Calb FLC: affects C. albicans growth with fluconazole | C. albicans CaCi-2 (fluconazole-resistant clinical isolate) + fluconazole, Alamar Blue growth, 48 h | growth inhibition, % (no concentration beside the values) | actives 0.57% (n = 300,000);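 active = most replicates above 75%; inconclusive = exactly half above 75%; inactive = most below 75%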;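 also: all wells also contain fluconazole at 8 µg/ml as a sub-toxic cotreatment; 0% = median of DMSO wells and 100% = median of geldanamycin control wells; wells of about 8 µL received 7.5 nL stock; the first replicate is given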
# Bfl-1 A1 inh: inhibitors of the anti-apoptotic protein A1, read as caspase activation; MEF A1-2A-BIM cells, Caspase-Glo 3/7 luminescence, 3 h; percent of clofoctol response, vehicle zero; caspase activation, % (test concentration not listed); actives 0.066% (n = 330,000); AID 2462;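 active = over half of replicate activation scores above 10%, or exactly half above 10 with the replicate mean above 10; inconclusive = replicate mean below 10 yet half the replicates above 10; inactive = over half of replicates below 10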;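 also: wells of about 30 µL received 50 nL stock; many hits fall short of the cut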
# RanGTP-Imp inh: inhibitors of RanGTP-importin-beta interaction, primary screen, biochemical, FRET, CFP-Ran, YFP-importin-beta, homogeneous; AID 2216; cell-free CFP-Ran/YFP-importin-beta FRET ratio; actives 1.1% (n = 300,000); inhibition, % (concentration not given with the values);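 active = most replicates above 15%; inconclusive = exactly half above 15%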;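 also: 0% = DMSO wells and 100% = Ran loaded with GDP instead of GTP; wells of about 40 µL received 100 nL stock; the first replicate is given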
# Beta apoptosis: beta cell apoptosis inhibition; protection from apoptosis, % (no concentration beside the values); INS-1E cytokine-induced death, ATP luminescence, 48 h; percent of positive-control rescue, neutral wells zero; actives 0.8% (n = 300,000);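 active = all replicates at 75% or more, or half of them and the mean; inconclusive = half reach 75% but not the mean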;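 also: 0% = cytokine-treated negative control wells and 100% = positive control rescue; higher means more ATP so stronger rescue from cytokine killing; wells of about 40 µL received 100 nL stock; the first replicate is given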
# AF4-AF9 inh: inhibitors of human MLL-AF4/AF9 interaction; inhibition, % at 10 µM; AlphaScreen, biotin-AF4 peptide binding to FLAG-AF9; actives 0.47% (n = 350,000); P42568;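 active = every replicate reaching a set inhibition limit, whatever the replicate mean, cut at about 25% in these data; inconclusive = mean inhibition reaches that limit but some replicates miss it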;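 also: 0% = plate neutral control median and 100% = total signal loss; the record names both 10 and 1 µM as test concentration; the first replicate is given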
# Target sequence (P42568 whole entry, looked up): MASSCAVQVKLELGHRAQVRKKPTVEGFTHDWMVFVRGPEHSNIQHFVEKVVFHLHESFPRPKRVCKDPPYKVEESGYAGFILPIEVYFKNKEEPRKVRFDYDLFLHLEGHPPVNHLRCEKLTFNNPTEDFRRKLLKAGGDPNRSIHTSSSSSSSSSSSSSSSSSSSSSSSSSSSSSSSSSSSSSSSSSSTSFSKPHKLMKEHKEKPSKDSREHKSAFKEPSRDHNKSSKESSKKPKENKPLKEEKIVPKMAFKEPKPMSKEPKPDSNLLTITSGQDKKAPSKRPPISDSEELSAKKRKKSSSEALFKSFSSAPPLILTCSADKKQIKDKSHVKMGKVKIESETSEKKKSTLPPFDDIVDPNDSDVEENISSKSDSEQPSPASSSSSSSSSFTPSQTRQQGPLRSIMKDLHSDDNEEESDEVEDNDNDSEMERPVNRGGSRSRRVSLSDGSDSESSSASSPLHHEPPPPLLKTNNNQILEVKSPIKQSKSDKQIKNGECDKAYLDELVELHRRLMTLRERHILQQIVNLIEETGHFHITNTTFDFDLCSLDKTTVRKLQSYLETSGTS
# T cruzi repl: T. cruzi replication inhibition; inhibition, % (test concentration not listed); T. cruzi beta-gal in NIH3T3, luminescence, 90 h; actives 1.4% (n = 300,000);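 active = mean inhibition across valid replicates above about 55%, limit read from the data; inconclusive = mean below that limit but half or more replicates reach it; inactive = mean below it, under half of replicates reach it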;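 also: signal also drops with host cell toxicity which is not excluded here; 0% = plate median of DMSO wells and 100% = zero luminescence signal; higher percent means less beta-gal luminescence so fewer parasites; stock transfer was 50 nL into about 50 µL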
# Vif A3G: HIV-1 Vif–A3G interaction blockers – biochemical, TR-FRET, GST-Vif 1-94, biotin-A3G peptide, dose response retest, primary screen (AID 1117319); TR-FRET GST-Vif / biotin-A3G peptide binding; higher % means a stronger effect; test concentration not given here; strong numbers were not always called active; inhibition, %; hits with a dose series show IC50 in µM; actives 0.57% (n = 260,000);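 active = above the screen mean plus three standard deviations and confirmed in dose response; inconclusive = results disagree or hit not tested in dose response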;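 also: Vif residues 1-94 fused to GST binding biotinylated APOBEC3G peptide 110-148; 0% = full assay without inhibitor and 100% = GST in place of GST-Vif; retest series ran down from 100 µM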
# LANA-H2B inh: blocks KSHV LANA binding to histone H2A/H2B. cell-free LANA-H2A/H2B peptide, fluorescence polarization. inhibition, % (test concentration not listed). actives 0.6% (n = 320,000); in the data active = inhibition mostly above about 10%, no sharp cut-off; inactive = mostly below about 6.7%;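 also: stock transfer was 7.5 nL into about 10 µL; 0% = median of vehicle wells and 100% = median of positive control wells; one replicate is shown; the record names a cut of 25% in any replicate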
# * hit, by the source's call; ? = inconclusive; · = no result given; & = joins results of further samples.
SMILES,Calb FLC,Bfl-1 A1 inh,RanGTP-Imp inh,Beta apoptosis,AF4-AF9 inh,T cruzi repl,Vif A3G,LANA-H2B inh
CCOC(=O)c1ccc(N=Cc2c(O)c3ccccc3oc2=O)cc1,21.2,0.5,-3.8,1.0,0.0,-4.7,·,-1.6
COc1ccc(C(=O)Nc2nc3ccc(S(C)(=O)=O)cc3s2)cc1,3.6,-1.1,0.4,5.1,·,-11.8,-53.8%,8.2
Cc1ccc(-c2cc(C)nc3nc(N)nn23)cc1,2.0,-0.7,?,1.3,·,-7.8,?,-0.9
O=C(NCC(c1ccco1)N1CCc2ccccc2C1)C(=O)Nc1cc(F)ccc1F (stereo not given),7.6,1.0,-1.1,-0.9,8.0,17.5,15.6%,-3.0
O=C(Cc1cccc2ccccc12)Nc1ccc(-c2cc3ccccc3oc2=O)cc1,·,0.7,9.4,-3.1,·,35.2,14.9%,3.5
Cc1nc2ccccc2cc1OCc1ccc(F)cc1,65.6,·,·,95.4*,·,-21.2,-1.1%,5.4
COc1ccc(SN=C2C(C)=CC(=O)C=C2C)cc1,-2.9,-0.6,-1.2,-12.9,12.5,-11.0,-1.5%,1.9
Cc1c(Cl)cccc1NC(=O)Cn1c(CCC(=O)O)ccc1-c1ccc(Cl)cc1,19.3,0.2,0.8,1.2,-13.9,-10.5,·,-0.5
N#Cc1ccccc1S(=O)(=O)N1CCN(C(=O)C2CC(=O)N(c3ccc4c(c3)OCCO4)C2)CC1 (stereo not given),·,-0.2,·,3.0,-1.4,·,·,-0.7
CCN(CCC(=O)Nc1ccc(Br)c(C)c1)Cc1ccccc1,3.6,-0.2,5.6,-0.1,·,21.4,11.8%,3.4
CCCN(CCC)CCCNS(=O)(=O)c1ccc2c(c1)oc(=O)n2C,7.6,0.3,-2.2,-1.8,·,-5.3,24.9%,-2.1
CCOc1ccc(S(=O)(=O)Nc2ccccn2)c2ccccc12,6.1,-0.8,-1.7,2.4,-0.3,2.7,-6.9%,-0.9
Cc1ccc2nc(SCC(=O)c3ccc4c(c3)NC(=O)CO4)[nH]c2c1,-3.2,-0.7,-4.3,1.1,-2.5,2.3,-1.0%,4.1
O=S(=O)(NCc1cccnc1)c1cccs1,6.0,1.2,4.2,-5.8,·,-17.4,0.6%,10.8
COc1cccc(NC(=O)COc2ccc(C)cc2)c1,·,-4.7,·,-1.7,·,·,-1.5%,1.7
COc1ccc(C(C(=O)NCC2CCCO2)N(C(=O)CNC(=O)c2cccs2)c2ccc(NC(C)=O)cc2)cc1OC (stereo not given),-3.8,0.2,-3.2,0.0,-0.6,-4.4,0.8%,7.1
COc1ccc(-n2c(=O)[nH]cc(C(=O)Nc3ccc4c(c3)OCCO4)c2=O)cc1OC,2.2,0.6,0.7,-9.4,-5.1,4.7,·,-2.3
Cc1cc(C)n(-c2ccc(C(=O)Nc3nnc(C4CC4)s3)cc2)n1,14.7,-0.3,-1.1,5.1,·,9.2,-9.5%,-1.2
CCOC(=O)c1cc2c(ccn2C)n1CC(=O)N1CCC(Cc2ccccc2)CC1,0.1,0.5,-0.9,·,·,32.0,?,5.3
Cc1cccc(C(=O)Nc2ccc(C(=O)N/N=C/c3cccc(C)n3)cc2)c1,2.8,-1.4,5.0,1.5,-0.2,-9.2,·,-1.3
Cc1cc(NC(=O)C2CCCCC2C(=O)O)ccc1NC(=O)c1ccccc1 (stereo not given),32.4,0.5,4.4,-3.6,-3.7,21.6,-4.0%,3.0
N#CCC(=O)Nc1ccc(C(=O)OCC(=O)NC(=O)Nc2ccc3c(c2)OCCO3)cc1,·,-1.5,·,0.2,-5.4,·,·,6.1
COc1ccc(S(=O)(=O)NNC(=O)Nc2ccc(F)cc2)cc1,0.9,-0.3,-2.1,-4.5,-2.4,-3.0,·,-3.5
Cc1c(C#N)c(N=CN(C)C)c(C(=O)c2ccccc2)n1-c1ccccc1,-8.0,0.5,-1.4,-1.6,·,8.3,-1.4%,-3.8
CCOC(=O)N1CCC(Nc2c(NCCCOC)c(=O)c2=O)CC1,-1.6,-0.4,2.9,-5.0,·,-24.0,0.7%&-5.7%,-2.6
Nc1c(-c2ccccc2)c(CSc2nc3ccccc3[nH]2)nn1-c1cccc(Cl)c1,5.8,-1.0,8.4,22.8,-4.2,65.9*,·,-2.6
S=C(NCCc1ccccc1)N1CCN(C(c2ccccc2)c2ccccc2)CC1,3.9,0.2,2.0,27.1,-32.5,32.1,-7.0%,-3.2
O=C(NCc1ccc(N2CCCC2=O)cc1)NC1CCCCC1,-7.1,1.1,-6.2,-6.8,·,-16.1,64.9%,0.2
CCc1ccc(NC(=O)C(=O)NNC(=O)c2ccc(OC)cc2)cc1,1.6,-0.1,-3.7,-3.2,-3.7,8.5,·,-0.6
Cc1nnc(NC(=O)Cn2cnc3c2c(=O)n(C)c(=O)n3C)s1,11.3,0.1,6.2,-4.3,·,14.7,2.4%,-2.4
CCCc1cc2c(cc1NC(=O)c1ccc(C)cc1)OCO2,31.5,0.0,3.9,6.1,·,2.9,-4.1%,15.2
O=C(COc1ccc2ccccc2c1)N1CCNCC1,7.8,0.1,-0.8,-0.7,-2.3,1.1,-3.4%,1.8
Cc1ccc(OCC(=O)N2C(C)CCCC2C)c([N+](=O)[O-])n1 (stereo not given),·,1.9,·,-4.0,-8.5,·,·,-0.5
CCOC(=O)c1sc(SC)c2c1CCC/C2=N/OC,0.5,0.4,-0.5,-0.1,0.2,17.0,10.1%,-1.1
COc1ccc(S(=O)(=O)NCCc2ccccc2)cc1OC,-8.6,-0.1,-2.6,-4.6,-0.3,-7.5,·,0.5
Cc1ccc(-c2nnc(SCC(=O)NC3CCS(=O)(=O)C3)nc2-c2ccc(C)cc2)cc1 (stereo not given),-4.2,-0.3,0.4,2.3,3.8,21.7,2.9%,7.1
O=C(NC(=S)NCC1CCCO1)C(c1ccccc1)c1ccccc1 (stereo not given),40.4,2.0,-4.6,-4.9,-2.8,-1.6,14.1%,-0.1
CCOC(=O)c1sc(N2C(=O)C(O)=C(C(=O)c3ccco3)C2c2ccc([N+](=O)[O-])cc2)nc1C (stereo not given),26.0,-1.1,6.4,-2.0,4.8,-23.3,·,1.5
CCOc1ccc(-c2nnc(-c3cccs3)o2)cc1,-26.0,-8.0,4.2,·,·,-3.9,2.2%,4.3
CCOc1ccc(-c2nc(N)ncc2-c2ccc(Cl)cc2)c(O)c1,8.4,0.0,1.8,-8.7,1.6,19.9,-9.4%,1.8
COc1cc(C)ccc1OCCOCCOc1ccc([N+](=O)[O-])cc1,1.7,0.6,3.1,·,0.0,-12.8,-1.4%,-2.3
Cc1sc2nc(C)n(/N=C/c3ccc(O)cc3O)c(=O)c2c1C,4.2,0.4,-2.3,16.4,-1.0,-1.8,-2.6%,3.8
O=C(Nc1nccc(-c2cccs2)n1)c1cccs1,43.3,0.3,-2.1,-11.4,·,-3.9,-0.6%,2.7
O=C(CCN1C(=O)COc2ccccc21)NCCCN1CCN(c2ccccc2F)CC1,-13.5,-1.2,-1.7,2.5,·,9.4,-0.4%&-5.1%,2.9
CCN(CC)c1ccc(NS(=O)(=O)c2ccc(-c3ccc(=O)[nH]n3)o2)c(C)c1,20.8,0.6,4.0,-2.3,2.5,-4.5,·,0.3
Clc1ccc(OCc2nnc(-c3ccccc3Br)o2)cc1,-8.5,0.1,3.6,-2.5,·,-9.8,0.7%,-1.0
O=C(CCC(=O)Nc1ccc(F)cc1)N/N=C/c1ccc(Br)cc1,-1.8,-1.1,0.3,-1.3,-1.9,-4.8,-6.0%,-3.3
O=C(O)CCc1ccc(-c2ccc(Br)cc2)n1Cc1ccco1,35.5,0.1,-2.0,-2.9,·,13.8,-0.5%,4.3
C=CCNC(=O)/C(=C/c1ccc(Br)cc1)NC(=O)c1ccccc1OC,9.2,2.4,-2.2,-1.6,0.1,10.1,-4.7%,-4.7
N/C(=N\OC(=O)N1CCOCC1)c1ccc(Cl)cc1,-11.8,0.2,4.2,-1.4,·,29.0,·,0.2
CCOc1ccc(NS(=O)(=O)c2ccc(NC(=S)NC(C)=O)cc2)cc1,8.1,0.3,?,2.4,-0.7,16.1,9.2%,4.9
O=C(/C=C/c1cccc([N+](=O)[O-])c1)NCC1CCCO1 (stereo not given),1.2,0.7,-1.2,-1.5,·,1.3,1.1%,-1.0
Cc1ccc2cccc(Oc3nnnn3-c3ccccc3)c2n1,11.3,0.5,8.3,-4.5,·,4.5,?,2.2
C/C(=C(\C#N)C(=O)NCCN1CCOCC1)N(C)C,-5.0,1.1,1.3,-1.9,-3.6,0.9,0.2%,2.5
O=C(NCc1ccccc1)c1ccc2nc(N3CCOCC3)sc2c1,10.2,0.3,2.9,-2.7,-10.4,-12.2,0.2%,-0.4
Cc1c(C(=O)Nc2ccccc2)oc2c1C(=O)CC(C)(C)C2,30.9,-1.6,0.5,1.9,·,7.4,8.8%,1.0
Cc1ncc([N+](=O)[O-])n1CC(=O)NC1CCCCC1,3.0,-0.4,4.2,-9.5,·,-9.6,-3.9%,0.3
Cc1ccc(S(=O)(=O)N(C(=O)c2ccncc2)c2ccc3oc4c(c3c2)CCCC4)cc1[N+](=O)[O-],-1.6,0.5,-1.4,1.1,·,7.0,-4.2%,-0.8
COc1ccc(NC(=O)CCN2C(=O)NC3(CCCC3)C2=O)cc1Cl,·,-0.2,·,-2.7,-0.8,·,-13.9%,-1.9
O=S(=O)(c1ccc(F)cc1)c1nc(-c2ccccc2)oc1N1CCOCC1,-0.3,0.3,0.4,·,2.5,9.7,4.2%,-32.1

# Going on with the list:
SMILES,Calb FLC,Bfl-1 A1 inh,RanGTP-Imp inh,Beta apoptosis,AF4-AF9 inh,T cruzi repl,Vif A3G,LANA-H2B inh
CC(=O)NC(C(=O)OCC(=O)N(c1ccccc1)c1ccccc1)C(C)C (stereo not given),1.4,0.0,-0.8,-9.3,-4.8,-10.7,-1.0%,1.9
Cc1cc(C)c2c(n1)sc1c(=O)n(CC(=O)c3ccccc3)cnc12,-8.0,-0.8,5.8,-7.1,-1.4,36.7,-15.4%,2.4
CCOC(=O)c1[nH]c(C(=O)O)c(CCC(=O)OC)c1C,-7.1,1.3,-0.9,1.3,3.0,-3.3,2.8%,0.8
CCOc1ccccc1N1CCN(C(=O)c2cccs2)CC1,-8.7,-0.6,-0.5,6.2,-1.2,-5.7,·,3.2
COc1ccccc1NC(=O)Nc1ccc(S(=O)(=O)Nc2onc(C)c2C)cc1,·,-0.1,·,-0.7,1.9,·,1.1%,-3.5
CCCc1nnc(NC(=O)c2cccs2)s1,19.9,-1.9,-123.4,-4.8,·,-12.5,0.1%,-1.2
Nc1ccc(C(=O)O)cc1S(=O)(=O)O,7.7,1.2,-3.9,0.6,0.8,-3.8,-6.9%,-1.1
COC(=O)c1ccccc1NC(=O)c1cn(-c2ccc(C)c(C)c2)c(=O)c2ccccc12,-0.4,0.3,-1.3,8.7,·,15.4,-38.0%,5.1
COc1cc(NC(=O)c2cccs2)c(OC)cc1NC(=O)c1ccco1,-6.1,0.2,5.1,3.2,·,-1.9,-3.6%,-0.8
O=C(Nc1ccccc1)Nc1nnc(-c2cccs2)s1,4.9,-1.5,0.2,-4.8,·,-4.1,·,·
CCOC(=O)N1CCN(C(=O)c2ccc(C#CC3(O)CCCCC3)cc2)CC1,-2.9,0.1,-2.7,-0.4,·,2.5,-0.9%,-6.0
